GIV-Gai inh – inhibitors of GIV GBA-motif binding to rat Galpha-i3 | AID 1224905 | Galpha-i3/FITC-GIV peptide fluorescence polarization, 90 min; hits give low values; scaled: aluminum fluoride 0%, vehicle 100% | P08753 | actives 0.42% (n = 210,000) | percent of control (FP), % (no concentration beside the values);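 active means replicate mean at 85% of control or lower, very high polarization wells dropped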;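 further: wells of about 15 µL received 100 nL stock; the first replicate is given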
Target sequence (P08753 whole entry, looked up): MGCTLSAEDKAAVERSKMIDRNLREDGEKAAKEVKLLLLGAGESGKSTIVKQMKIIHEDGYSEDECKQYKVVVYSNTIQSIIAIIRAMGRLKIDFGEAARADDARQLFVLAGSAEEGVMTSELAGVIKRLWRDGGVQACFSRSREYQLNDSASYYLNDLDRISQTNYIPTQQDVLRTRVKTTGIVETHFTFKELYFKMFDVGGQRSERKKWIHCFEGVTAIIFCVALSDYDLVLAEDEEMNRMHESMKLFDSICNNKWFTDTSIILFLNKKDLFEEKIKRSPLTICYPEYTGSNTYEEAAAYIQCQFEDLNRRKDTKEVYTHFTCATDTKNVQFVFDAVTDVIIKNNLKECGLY
Starred values were filed as active, the others as inactive. An excerpt. The share of hits here may be higher or lower than overall.

GIV-Gai inh	structure
104.1	CCSc1nnc(-c2nn(C)c3c2CN(S(=O)(=O)c2ccc(C)c(F)c2)CC3)n1CC
98.6	CCc1ccccc1-n1c(SCC(=O)Nc2cc(Cl)c(OC)cc2OC)nc2n[nH]c(C)c2c1=N
100.0	CN(C)c1nc2ncn3c(=O)n(CC(=O)Nc4ccccc4Cl)nc3c2s1
108.4	CCOc1ccc(N2C(=O)C(N3C(=O)c4ccc([N+](=O)[O-])cc4C3=O)C2c2cc(Br)ccc2OC)cc1 (centres undefined)
104.7	CN(CCc1noc(-c2ccc(C(=O)NCc3ccccc3Cl)cc2)n1)C(=O)Nc1ccccc1
100.9	CC1=C(c2ccc(Cl)cc2)S(=O)(=O)N=C1N1CCC(NC(=O)NC(C)C)CC1
119.4	CCOc1ccc(-n2c(=S)sc3c(=O)[nH]c(SCc4cc(=O)n5cc(Cl)ccc5n4)nc32)cc1
103.9	CCCc1[nH]nc2c1C(c1cc(OCC)c(OC(=O)c3cccs3)c([N+](=O)[O-])c1)C(C#N)=C(N)O2 (centres undefined)
100.7	COc1ccc2c(c1)c1ncn(Cc3nc(C4CC4)no3)c(=O)c1n2Cc1c(F)cccc1Cl
104.7	N#Cc1c(-c2cccs2)cc(-c2ccc3ccccc3c2)nc1SCC(N)=O
107.3	O=C(CCc1nc(-c2ccc(S(=O)(=O)N3CCCC3)cc2)no1)N1CCN(c2ccccc2)CC1
111.0	COc1cccc(OC)c1C(=O)Nc1ccc(Oc2ccc(Br)c3ccccc23)c(Cl)c1
117.7	Cc1cc(-c2ccc(C3C4=C(CC(C)(C)CC4=O)OC4=C3C(=O)CC(C)(C)C4)o2)ccc1[N+](=O)[O-]
102.7	Cc1ccc(C(=O)N2c3ccccc3N3C(c4c(C)cc(C)cc4C)=NON23)cc1
106.4	C=CCn1c(=O)c(=O)n(CCC(=O)NCCc2c[nH]c3ccc(Cl)cc23)c2ccccc21
105.2	Cn1cnc(S(=O)(=O)NC2CCN(c3ncnc4c3CCC4)C2)c1 (centres undefined)
105.7	O=C1CC(c2ccc(Cl)c(Cl)c2)c2cc(Br)c3ccccc3c2N1 (centres undefined)
106.0	CCCN1c2ccccc2C2=C(SC(C(=O)OC)=C(C(=O)OC)C23SC(C(=O)OC)=C(C(=O)OC)S3)C1(C)C
129.4	CC(C)(C)OC(=O)N1CC=C2C(C#N)=C(N)C(C#N)(C#N)C(c3cccc(Cl)c3)C2C1 (centres undefined)
130.3	CCOc1ccc([C@@H]2[C@@H](C(=O)c3ccccc3)N3c4ccc5ccccc5c4C=C[C@@H]3C2(C#N)C#N)cc1
104.6	COc1ccc(S(=O)(=O)n2c(SCC(=O)Nc3ccc(C(C)C)cc3)nc3ccc(OC)cc32)cc1
96.1	COc1cccc(C2C(C(=O)Nc3ccccc3)=C(C)N=c3s/c(=C/c4c[nH]c5ccccc45)c(=O)n32)c1 (centres undefined)
103.6	COc1cc([N+](=O)[O-])cc2c1OC1(C=Cc3c(ccc4ccccc34)O1)C(C)=C2 (centres undefined)
115.3	C=C(C)COc1ccc2c3c(c(=O)oc2c1C)CCCC3
117.7	CN(C)C1N(C(=O)c2cccc(Br)c2)N=C2c3ccccc3S(=O)(=O)N21 (centres undefined)

Brought forward from above: 2 entries, followed by the next part.
GIV-Gai inh	structure
115.3	C=C(C)COc1ccc2c3c(c(=O)oc2c1C)CCCC3
117.7	CN(C)C1N(C(=O)c2cccc(Br)c2)N=C2c3ccccc3S(=O)(=O)N21 (centres undefined)
102.3	COc1ccccc1N1CCN(C(=O)CSc2nccc3c2ccn3Cc2ccc(F)cc2)CC1
107.6	COc1ccc(-c2csc(Cc3nc(-c4cccc(Cl)c4)no3)n2)cc1OC
109.3	CN1C2C=C3C(C#N)=C(N)C(C#N)(C#N)[C@@H](c4ccc(F)cc4)[C@@H]3C1CC2 (some centres undefined)
99.9	O=C(NC1CCCCC1)c1ccc(-c2cc(N3CCOCC3)ncn2)cc1
97.8	CCCNC(=O)c1ccc(Oc2ccc(NS(=O)(=O)c3ccc(Br)cc3)cc2)nc1
123.4	COC(=O)c1cc(Nc2cccc(C)c2)c2ccccc2n1
102.3	Cc1cc(NC(=O)c2cc3nc(-c4ccc(Br)cc4)cc(C(F)(F)F)n3n2)no1
124.1	CCCC(=O)N1c2c(C)cccc2C(Nc2ccccc2C)CC1C (centres undefined)
99.1	O=S(=O)(c1cccn2c(SCc3cccc(F)c3)nnc12)N1CCCC1
102.7	Cc1cc(C)cc(Nc2cc(-n3nc(C)cc3C)ncn2)c1
106.2	O=c1oc2cc(OCc3cccc(Cl)c3)ccc2cc1-c1nc2ccccc2s1
113.6	O=C1N(CN2CCN(Cc3ccccc3)CC2)c2ccccc2C12OCC(CO)([N+](=O)[O-])CO2 (centres undefined)
112.9	Cc1ccc(S(=O)(=O)n2c(SCC(=O)Nc3ccc(Br)cc3F)nc3ccccc32)cc1
103.5	CC1=NN(c2ccc(Cl)c(C(=O)O)c2)C(=O)/C1=C\c1cc([N+](=O)[O-])c(N2CCOCC2)cc1N1CCOCC1
107.8	CCOC(=O)c1c(C)n(CCOc2ccc(CC)cc2)c2c1cc(O)c1ccccc12
98.1	Cc1ccc(N(C)S(=O)(=O)c2cc(-c3nc(C)c(C)s3)sc2C)cc1
107.6	Cc1cccc(N2CCN(c3cccc(C)c3)C2c2ccc(Br)cc2)c1
101.2	O=C(C1CCN(c2ncnc3c2oc2ccccc23)CC1)N1CCC(Cc2ccccc2)CC1
104.8	COC(=O)c1ccc2c(=O)n(Cc3ccc(C(=O)N4CCC(N5CCCCC5)CC4)cc3)c(=S)[nH]c2c1
108.8	COC(=O)C1(C(=O)/C=C/c2ccc(Cl)cc2)CCCCC1
109.2	COc1ccc(/C=C2N=C(/C=C/c3cccc(Cl)c3Cl)OC\2=O)c(OC)c1OC
102.4	O=C(NCc1ccc(F)cc1Cl)C1CCN(c2ncnc3c2oc2ccccc23)CC1
103.3	COc1ccc(Br)cc1C1N(c2cccc(C)c2)CCN1c1cccc(C)c1
103.6	Cc1ccc2nc(-c3ccc(NS(=O)(=O)c4cccc(F)c4)cc3)ccc2c1
98.3	CCCCCOCC1OC2OC(C)(C)OC2C2OC(C)(C)OC12 (centres undefined)

In another format: results already given
O=C1CC(c2ccc(Cl)c(Cl)c2)c2cc(Br)c3ccccc3c2N1 (centres undefined)
  GIV-Gai inh: 105.7
CCCc1[nH]nc2c1C(c1cc(OCC)c(OC(=O)c3cccs3)c([N+](=O)[O-])c1)C(C#N)=C(N)O2 (centres undefined)
  GIV-Gai inh: 103.9
O=c1oc2cc(OCc3cccc(Cl)c3)ccc2cc1-c1nc2ccccc2s1
  GIV-Gai inh: 106.2
COc1ccc(S(=O)(=O)n2c(SCC(=O)Nc3ccc(C(C)C)cc3)nc3ccc(OC)cc32)cc1
  GIV-Gai inh: 104.6

Next section:
GIV-Gai inh	structure
111.1	COc1ccc(Br)cc1C1CC(=O)Nc2c1ccc1ccccc21 (centres undefined)
102.1	Cc1sc(-c2cc(C(F)(F)F)on2)cc1S(=O)(=O)Nc1cccc(Cl)c1C
106.0	CC(C)c1ccc(S(=O)(=O)N2CCC3(CC2)NCCN=C3NCc2ccccc2)cc1
96.0	c1ccc2oc(-c3cn[nH]c3)nc2c1
99.5	Cc1ccc(C2=CC(c3ccc(C)cc3)n3c(nc4ccccc43)N2)cc1 (centres undefined)
112.0	CCc1c(C)sc(NC(=O)c2cc3n(n2)C(C(F)(F)F)CC(c2ccc4c(c2)OCO4)N3)c1C#N (centres undefined)
101.4	CCCc1[nH]n(-c2ccc(F)cc2)c(=O)c1C=Nc1ccc(Cl)c(Cl)c1
137.7	CCCc1nn2c(=O)cc(CN(Cc3ccc(C(C)C)cc3)CC(C)C)nc2s1
117.8	Cn1c2c(c(=O)n(C)c1=O)C(c1ccc(O)c(O)c1)C1=C(N2)c2ccccc2C1=O (centres undefined)
114.9	CCC(C)N1C(=O)N(c2cccc(Cl)c2)C(n2oc(=O)n(-c3cccc(Cl)c3)c2=O)C1(C)C (centres undefined)
109.0	c1ccc(-c2nnc(-c3cccnc3NCc3ccc4c(c3)OCO4)o2)cc1
106.2	Cc1cc(C)nc(NS(=O)(=O)c2ccc(NC(=O)c3ccc(Br)o3)cc2)n1
101.2	CC(C)c1cc(C2CCCN2S(C)(=O)=O)on1 (centres undefined)
102.8	Cn1c(SCC(=O)N2CCc3cc(Br)ccc32)nnc1-c1cc2ccccc2o1
107.5	COc1nc(NCCN2CCOCC2)nc(Nc2ccc(Cl)cc2)n1
105.5	CN(C)C1(c2nnnn2CCOC(=O)Nc2ccc(Cl)cc2)CCCC1
110.4	COc1ccc(C2/C(=C(\O)c3ccc(C)cc3)C(=O)C(=O)N2c2ccccn2)cc1OC (centres undefined)
100.8	Cc1cccc(NC(=O)N(C)CCc2noc(C(=O)NCc3ccc(Cl)cc3)n2)c1C
108.0	COc1ccc(-n2c(SCc3ccccc3)nc3nc4c(cc3c2=O)COC(C)(C)C4)cc1
103.4	CC(=O)Nc1cc(-c2nc(-c3ccc(Oc4ccccc4)cc3)no2)ccc1C
109.1	Cn1cnnc1SCC(=O)Nc1ccc2nc(SCC(=O)NC3CCCCC3)sc2c1
99.9	CCOc1c(C(=O)OC)sc2ccc(NC(=O)c3cc(OC)cc(OC)c3)cc12
102.6	O=C(COc1ccc(F)cc1)Nc1ccccc1-c1ccc2ccccc2n1
112.4	CC(C)CCCC(C)C1CCC2C3CC=C4CC(OC(=O)c5ccccc5Cl)CCC4(C)C3CCC12C (centres undefined)
108.4	COC(=O)C1=C(C)NC2(O)c3ccccc3C(=O)C12O (centres undefined)
105.0	Cc1nc(N2CCOCC2)nc(N2CCN(c3ccccc3)CC2)c1[N+](=O)[O-]
95.3	Cc1ccc(C)c(N2CCN(S(=O)(=O)c3cc(-c4noc(C5CC5)n4)cs3)CC2)c1
113.8	c1ccc(-c2ccc(-c3nc(-c4ccccc4)[nH]c3-c3ccc(-c4ccccc4)cc3)cc2)cc1
102.7	C/C(=N\OCc1nc2c3c(-c4ccccc4)c(-c4ccccc4)oc3ncn2n1)c1ccccc1
99.1	O=C(C1=CN(c2ccc3c(c2)OCCO3)c2cc(F)ccc2S1(=O)=O)N1CCOCC1
106.3	CC1=C(C(=O)Nc2ccc(Cl)cc2)C(c2ccco2)C(C#N)=C(SCC(=O)Nc2ccc(C)cc2C)N1 (centres undefined)
106.2	O=C1OC2C=CC=CC2C=C1C(=O)N1CCSC1c1ccc2c3c(cccc13)CC2 (centres undefined)
106.4	O=C(NC1CCCC1)C1CCCN(c2nn3c(=O)c4c(nc3s2)CCCC4)C1 (centres undefined)
113.9	Cc1ccccc1-c1cc2n(C)c(C)c(CCC(=O)Nc3ccc4c(c3)OCO4)c(=O)n2n1
102.5	CCc1cccc(C)c1NC(=O)c1cc(S(=O)(=O)N2CCC(C)CC2)ccc1F
109.8	Cc1ccc(N/C(SCc2cccc(Br)c2)=C(/C#N)C(=O)NCc2ccco2)cc1C
110.9	CCOc1ccc(N2C(=O)C3C4c5ccc(C(C)(C)C)cc5C(c5ccc(C(C)(C)C)cc54)C3C2=O)cc1 (centres undefined)
106.8	Cc1nc2ccccc2c2nc(NC(=O)Cc3ccccc3)nn12
107.4	COC(=O)C1=C(C(=O)OC)SC2(S1)C(C(=O)OC)=C(C(=O)OC)SC1=C2c2cc(C)c(C)cc2N(C(=O)c2cccs2)C1(C)C
105.1	COc1cccc(/C=C2\N=C(c3cccc(Br)c3)OC2=O)c1
103.1	CN(C)c1nc2ncn3c(=O)n(CC(=O)Nc4ccc(Cl)cc4F)nc3c2s1
111.0	CCOc1ccc(-n2c(=S)sc3c(=O)[nH]c(SCC(=O)NCc4ccco4)nc32)cc1
120.5	CCOc1ccc(C2C(C(=O)c3ccccc3)N3c4ccccc4C=CC3C2(C#N)C#N)cc1 (centres undefined)
107.7	COc1ccc(S(=O)(=O)N(CC(=O)NC2CCCCC2)c2cc(Cl)ccc2OC)cc1OC
105.3	COc1cc(C2CC(=O)Nc3c2ccc2ccccc32)c(OC)cc1Br (centres undefined)
111.3	COc1ccc2nc(NC(=O)c3sc4ncn(CC(=O)N5CC(C)CC(C)C5)c(=O)c4c3C)sc2c1 (centres undefined)
99.7	CCOC(=O)C1CCN(C(=O)c2c[nH]c3ccc(S(=O)(=O)N(C)c4ccc(F)cc4)cc3c2=O)CC1
105.3	CN1CC(=O)N(CC(=O)Nc2ccc3c(c2)OCO3)c2ccccc2C1=O
104.7	Cc1nn(-c2nc3ccc(Br)cc3s2)c2c1C(c1c(C)sc3ccccc13)CC(=O)N2 (centres undefined)
110.1	COc1cc(OC)cc(C(=O)OCCN(C2=NS(=O)(=O)c3ccccc32)c2ccccc2)c1

Grouped by structure: those above with a tert-butyl group
GIV-Gai inh	structure
129.4	CC(C)(C)OC(=O)N1CC=C2C(C#N)=C(N)C(C#N)(C#N)C(c3cccc(Cl)c3)C2C1 (centres undefined)
110.9	CCOc1ccc(N2C(=O)C3C4c5ccc(C(C)(C)C)cc5C(c5ccc(C(C)(C)C)cc54)C3C2=O)cc1 (centres undefined)

Following part:
GIV-Gai inh	structure
95.6	CCc1ccc(C(=O)COC(=O)C(Cc2c[nH]c3ccccc23)NC(=O)c2ccco2)cc1 (centres undefined)
108.1	CCCOc1ccc(/C=c2\sc3nc(=O)c(C)nn3c2=O)cc1
103.0	COc1ccc(-c2nc3ccccc3c3nnc(SCc4ccccn4)n23)cc1
102.7	CC(NC(=O)COc1ncnc2onc(-c3ccccc3)c12)c1ccccc1 (centres undefined)
101.7	CC(C)CNC(=O)CCn1c(=O)c2ccccc2n2c(=O)n(CC(=O)NC(C)C)nc12
113.8	COC(=O)c1cc(NC(=O)c2cc3c(ccc4ccccc43)oc2=O)cc(C(=O)OC)c1
